Bst PK mod: modulators of Bacillus stearothermophilus pyruvate kinase | AID 361 | partly purified Bacillus stearothermophilus pyruvate kinase, luminescence ATP production; ribose 5-phosphate activator present at AC10 | actives 1.2% (n = 51,000) | Potency, µM; in the data active means potency below about 11 µM; inconclusive means mostly about 12 µM to 25 µM; inactive means weaker than that;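 the screen sought inhibitors and activators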;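 further: potency means the concentration at half of the fitted maximal effect; scaled between full activation by ribose 5 phosphate and full inhibition by luteolin; about four in five hits inhibit and the cells do not say which; series up to 57 µM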
TsaE inh: YjeE (TsaE) inhibition, E. coli. Potency, µM. AID 605. purified YjeE, fluorescence polarisation of a bound ADP probe. P0AF67. actives 0.05% (n = 71,000); active = well fitted falling curve; inconclusive = weaker or top-dose-only fall, or a rising curve; inactive = flat or poorly fitted curve;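 further: top concentration of the series not given in the record; excess ADP was the control for the full effect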
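Fluorescence polarization of a BODIPY Texas Red–ADP probe (2 uM) bound to purified YjeE (10 uM) was read after 15 min room-temperature incubation with compounds. Loss of polarization marks inhibitors; ADP serves as titrated control.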
Active calls of the source: *; i = inactive; · = no result given. Not all compounds are listed; rates above refer to the full screens.

Values run as follows: Bst PK mod, TsaE inh
CSc1ccc(S(=O)(=O)Nc2cccc(F)c2)cc1
  >57, i
O=C(O)C1CCC(=O)N1C1c2ccccc2Oc2ccccc21 (stereo not given)
  ·, i
COc1cc(OC)c(C2=NOC(C(=O)O)C2)cc1Cl (stereo not given)
  >57, i
Cc1ccc(SCc2c(C#N)c3ccccc3n2C)cc1
  >25.6, ·
CCCCC(=O)N1CCCC(c2nc3c(nnn3Cc3cc(C)ccc3C)c(=O)[nH]2)C1 (stereo not given)
  >57, i
CN(Cc1nc(-c2ccncc2)no1)S(=O)(=O)c1ccccc1
  >57, i
COc1ccc(C)cc1NC(=O)CNC(=O)Cn1ccc2ccccc2c1=O
  >57, i
CC(CN1CCOCC1)C(=O)O (stereo not given)
  >57, i
CCOC(=O)CC(=O)CSc1ccc2nnc(-c3ccc(C)cc3)n2n1
  >57, i
COC(=O)[C@@]1(Cc2ccc(F)cc2)[C@H]2c3cc(C(=O)N(C)C)n(Cc4ccc(OC(F)(F)F)cc4)c3C[C@H]2CN1C(=O)c1ccccc1
  ·, i
Cc1cccc(Cn2c(N3CCN(c4ccccc4)CC3)nc3c2c(=O)n(C)c(=O)n3C)c1
  >57, i
O=C(OCC(=O)N1CCN(c2ccccc2)CC1)c1ccco1
  >57, i
Nc1nonc1C(=O)NCCc1ccccc1
  ·, i
Cc1ccc([N+](=O)[O-])c(C)c1
  ·, i
COc1cccc(C2N(c3ccc(Cl)c(Cl)c3)C(=O)C3CCCN32)c1OC (stereo not given)
  >57, i
CC(=O)Nc1ccc(S(=O)(=O)NCc2ccc(C(=O)NCc3ccc4c(c3)OCO4)cc2)cc1
  >57, i
O=C(NCCCN1CCOCC1)c1cc2cc(Br)ccc2oc1=O
  ·, i
Cc1ccccc1CN(c1ccc(C(=O)N2CCCC2)cc1)S(C)(=O)=O
  >57, i
COc1ccc(C2CC(=O)N3CN(c4ccccc4F)CSC3=C2C#N)cc1OC (stereo not given)
  ·, i
CC(=O)Nc1cccc(-c2nc3ccc(NC(C)=O)cc3[nH]2)c1
  i, i
CCOC(=O)c1nnn(-c2nonc2N)c1-c1ccc(OCC)cc1
  >57, i
O=C(CSc1nccn1-c1ccc(F)cc1)NCc1ccc2c(c1)OCO2
  >57, i
CCn1c(SCC(=O)N2CCCc3ccccc32)nc2ccccc2c1=O
  >57, i
COC(=O)C1=C(N)n2c(s/c(=C\c3cccnc3)c2=O)=C(C(=O)OC)C1c1cccnc1 (stereo not given)
  >57, i
Clc1ccc(-n2ncc3c(NCc4ccco4)ncnc32)cc1
  7.61*, ·
C=C(C)CSc1nc(N)c2c3c(sc2n1)CCC3
  >25.6, ·
N#Cc1c(NC(=O)CSC2=NCCS2)sc2c1CCCC2
  >57, i
CCN(CC)c1ncc(C)c(=O)[nH]1
  >25.6, ·
O=C(NC1=NCCS1)c1ccc2c(c1)C(=O)N(Cc1ccco1)C2=O
  >57, i
CCOC(=O)c1c(C)n(C)c2ccc(OCC(O)CN(CC)CC)cc12 (stereo not given)
  ·, i
Cc1cc(O)c(C(C)C)cc1N=Cc1ccccc1O
  ·, i
Cc1cccc2cc(COC(=O)C(C)C)c(=O)[nH]c12
  >57, i
COC(=O)c1c(C)n(-c2ccc(OC)cc2)c2ccc(O)cc12
  >57, i
CCOc1ccc(C2/C(=C(\O)c3c(C)[nH]c(C(=O)OC)c3C)C(=O)C(=O)N2CCN(C)C)cc1 (stereo not given)
  >57, i
COc1ccc(OC)c(NC(=O)CC(Cc2ccccc2OC)C(=O)O)c1 (stereo not given)
  >57, i
CCC/C=C(\CCC)C(NC(=O)OCC(C)C)c1ccc(C(=O)OC)cc1 (stereo not given)
  ·, i
Cc1nnc(NC(=O)c2ccc(-c3cccc(C(F)(F)F)c3)o2)s1
  >57, i
Cc1cc(N2C(=O)C(=O)/C(=C(/O)c3ccc(F)cc3)C2c2ccc(Cl)cc2)no1 (stereo not given)
  >57, i
Cn1cccc1C(=O)NC(=O)COC(=O)c1ccccc1O
  >57, i
O=C(Nc1ccccc1)N1CCC(C(=O)N(Cc2ccco2)Cc2cccs2)CC1
  >57, i
Cc1ccc2nsnc2c1S(=O)(=O)N1CCN(CCc2ccccc2)CC1
  i, i
C=C(C)c1cccc(C(C)(C)NC(=O)Nn2cnnc2)c1
  >57, i
O=C(COC(=O)C1CCCCC1C(=O)N1CCc2ccccc21)NCc1ccco1 (stereo not given)
  >57, i
CCc1ccc(NC(=O)CSc2nnc(Cn3c(=O)sc4ccccc43)n2C)cc1
  ·, i
COC(=O)c1c(C)[nH]c(C)c1C(=O)c1ccccc1Cc1ccccc1
  ·, i
Cc1[nH]nc(N=Cc2c(O)n(C)c(=O)n(C)c2=O)c1-c1ccccc1
  >57, i
COc1ccc(NC(=O)Nc2c(C)n(C)n(-c3ccccc3)c2=O)cc1
  ·, i
CCOC(=O)c1[nH]c(C)c(C(=O)N(C)C)c1C
  >57, i
O=C1C=C(NCC2CCCO2)C2(CCCCC2)O1 (stereo not given)
  >57, i
COC(=O)c1c(C)cc(C)n2c1nc1ccccc12
  ·, i
Cc1nn(C)c(C)c1CN(C)C(=O)c1cc2n(n1)C(C(F)(F)F)CC(c1cccs1)N2 (stereo not given)
  >57, i
Cc1cc(C)cc(C(=N)c2ccccc2Cc2cccc3ccccc23)c1
  ·, i
Cn1c(=O)c2c(nc(NCCCO)n2CCc2ccccc2)n(C)c1=O
  >57, i
Cc1cc(NS(=O)(=O)c2ccc(NC(=O)COc3ccccc3Cl)cc2)no1
  >57, i
CSc1nnc(-c2ccco2)c(-c2ccco2)n1
  >57, i
Cc1ccccc1N(Cc1nnc2n1CCCCC2)C(=O)Nc1ccccc1
  >57, i
Cc1ccc(-c2cc3nc4c(c(=O)n3[nH]2)CCCC4)cc1
  ·, i
CSc1nnc(-c2ccc(S(=O)(=O)N3CCOCC3)cc2)n1CC1CCCO1 (stereo not given)
  >57, i
COc1cc(-c2nnc(SCC(=O)N3CCCC3)o2)cc(OC)c1OC
  >57, i
Cn1c(=O)c2c(nc(NC(Cc3ccccc3)C(=O)O)n2Cc2ccccc2)n(C)c1=O (stereo not given)
  >57, i

Next part:
Values run as follows: Bst PK mod, TsaE inh
COc1ccc(S(=O)(=O)Nc2ccc(S(=O)(=O)N3CCCCC3)cc2)cc1OC
  >57, i
COC(=O)N1CC=CC1(C)C(=O)NCC1CC1 (stereo not given)
  ·, i
CCOc1ccc(C(=O)Nc2c3c(nn2C(C)(C)C)CSC3)cc1OCC
  >57, i
CC(=O)Nc1ccc(NC(=O)c2cc(C)nn2-c2ccccc2)cc1
  >57, i
CCC1CCCCN1CCCn1c(=S)[nH]c2ccccc2c1=O (stereo not given)
  >57, i
CN(C)c1ccc(N=Cc2ccco2)cc1
  ·, i
O=C(Cc1ccccc1)Nc1cccc(N2CCCC2)c1
  >57, i
Cc1ccc2oc(Nc3nc(C)cc(C)n3)nc2c1
  ·, i
Cn1cc(Cl)nc1C(O)c1ccccc1 (stereo not given)
  >25.6, ·
Nc1nc(N)c2[nH]c(CNc3ccc(C(=O)O)cc3)nc2n1
  ·, i
CCc1[nH]nc2c1C1(CCN(C(=O)OCc3ccccc3)CC1)C(C#N)=C(N)O2
  >57, i
N#CC1(c2c(O)nc3n(c2=O)CCCS3)CCCCC1
  >57, i
CC(C)(C)C(=O)Cn1c(=O)n(CC2CCCO2)c(=O)c2ccccc21 (stereo not given)
  >57, i
CC(C)(C)NC(=O)C(c1ccccc1)N(C(=O)c1csnn1)C1CC1 (stereo not given)
  >57, i
CN(C)Cc1c(O)ccc2[nH]cnc12
  >57, i
CCN(CC)S(=O)(=O)c1ccc2c(c1)nc(CCC(=O)OCc1c(C)noc1C)n2C
  >57, i
Cc1c(C#N)c2ccccc2n1CC(=O)NCCc1c[nH]c2ccccc12
  ·, i
N#Cc1nc(COc2ccc(Br)cc2)oc1N1CCCCCC1
  ·, i
CC(C)(C)NC(=O)CSc1nnc(NC(=O)CCn2cnc3ccccc3c2=O)s1
  >57, i
CCOC(=O)N1CCN(C(=O)CN(c2ccc(C)c(C)c2)S(=O)(=O)c2ccccc2)CC1
  ·, i
CCC(C)NC(=O)c1ccccc1NS(=O)(=O)c1ccc(OC)c(OC)c1 (stereo not given)
  >57, i
COc1cc2cc3c4cc(OC)c(OC)cc4cc[n+]3c(C)c2cc1OC
  ·, i
CC1(C)Cc2c(c(N3CCOCC3)nc3sc(C#N)c(N)c23)CS1
  >25.6, ·
COc1ccc2c(c1OC)C(=O)N1c3ccccc3C(=O)N(c3ccccc3)C21 (stereo not given)
  >25.6, ·
Cn1c(=O)c2[nH]c(C3CCCC3)nc2n(C)c1=O
  ·, i
CCOC(=O)CCc1c(C)c2ccc(OCC(=O)N(CC)CC)c(C)c2oc1=O
  >57, i
CCNc1ncc2nc(-c3ccccc3)c(=O)n(C)c2n1
  ·, i
Cc1cc(CNC(=O)C(C)Cc2ccccc2)nn1C (stereo not given)
  ·, i
CCOc1ccccc1NC(=O)CC1Nc2ccccc2NC1=O (stereo not given)
  >57, i
Cc1ccc(C)c(C(=O)N(Cc2nc(-c3ccc(Cl)cc3)no2)C(C)C)c1
  ·, i
Cc1ccc(CC2CC(=O)N(Cc3ccco3)C2=O)cc1 (stereo not given)
  ·, i
COc1ccccc1NC(=O)c1cc2ccccc2o/c1=N\O
  >57, i
CC(=O)c1ccc(N2CCN(C(=O)c3ccc(NC(=O)C4CCCO4)cc3)CC2)cc1 (stereo not given)
  >57, i
COc1cccc(NC(=O)N2CCC(C(N)=O)(N3CCCCC3)CC2)c1
  >57, i
OCCNC1=NCCN1
  >25.6, ·
CCCCCn1c(=O)[nH]c2cc(C(=O)NCCN3CCOCC3)ccc2c1=O
  >57, i
COc1cc(NC(=O)c2ccco2)c(OC)cc1NC(=O)CSc1nnc(-c2cccs2)n1C
  >57, i
CCOc1ccccc1OCCCC(=O)Nc1ccc(OC)nc1
  >57, i
COCc1nc(-c2cc(Br)ccc2OC)no1
  >57, i
CCOc1ccc(C2=Nn3c(nnc3-c3ccccc3OC)SC2)cc1
  >11.4, ·
CC(=O)Nc1cccc(OC(=O)c2ccoc2C)c1
  >57, i
CC1=Nc2ccccc2NC(=O)C1Sc1nnc(C)s1 (stereo not given)
  >57, i
CC(C)OC(=O)CSc1nnc(-c2ccc(Cl)cc2)n1N
  >57, i
COCCCCC(=NOCCN)c1ccc(C(F)(F)F)cc1
  ·, i
O=C(O)CSCCC(=O)Nc1ccc(F)cc1
  >57, i
CCCCn1c(CNC(=O)CCC)nc2ccccc21
  ·, i
COC(=O)CC1SC(=O)NC1=Nc1ccc(C)cc1 (stereo not given)
  >57, i
NC(=O)c1sc2nccc(Nc3ccccc3)c2c1N
  i, i
CC1=C(C#N)C(c2cccnc2)C2=C(CC(C)(C)CC2=O)N1 (stereo not given)
  ·, i
CCS(=O)(=O)Nc1ccc(-c2ccc(NS(=O)(=O)CC)c(OC)c2)cc1OC
  ·, i
Cc1cc(C)c(OCC(=O)Nc2cccc(O)c2)cc1C
  ·, i
CCCn1c(NCc2ccc(N(C)C)cc2)nc2ccccc21
  ·, i
CC[C@H](C)C(=O)O[C@H]1C[C@@H](C)C=C2C=C[C@H](C)[C@H](CC[C@@H]3C[C@@H](O)CC(=O)O3)[C@H]21
  >11.4, i
COc1cc(NC(=O)c2ccc3c(c2)OCO3)c2ncccc2c1
  ·, i
COc1ccc(N2CCN(S(=O)(=O)c3ccc(C(=O)NCc4ccco4)cc3)CC2)cc1
  >57, i
CCC(C)NC(=O)CN(c1ccc(OC)cc1)S(=O)(=O)c1ccc(NC(C)=O)cc1 (stereo not given)
  ·, i
CCc1nnc(NC(=O)c2cccc(OC)c2)s1
  ·, i
CCCCOP(=O)(c1ccc(N(C)C)cc1)C(O)c1ccncc1 (stereo not given)
  >57, i
N#CC1=C(N)Oc2n[nH]c(-c3ccncc3)c2C1c1ccsc1 (stereo not given)
  >57, i
COc1ccc(CN2CCN(C(=O)CC(C)C)CC2)cc1OC
  ·, i

Profiles as entered above. Screens in order: Bst PK mod	TsaE inh
`NC(=O)c1sc2nccc(Nc3ccccc3)c2c1N` across the screens: i	i
`Cc1cc(C)c(OCC(=O)Nc2cccc(O)c2)cc1C` across the screens: ·	i
`Cc1ccc(CC2CC(=O)N(Cc3ccco3)C2=O)cc1` (stereo not given) across the screens: ·	i
`COc1ccc(CN2CCN(C(=O)CC(C)C)CC2)cc1OC` across the screens: ·	i

(cont.)
Values run as follows: Bst PK mod, TsaE inh
CC(=O)c1c(C(C)=O)c(C)n(Cc2ccccc2)c1C
  ·, i
CCN(CC)CCCNS(=O)(=O)c1ccc(OC)cc1
  ·, i
COc1cc(C2C(C#N)=C(N)Oc3cc(C)n(CCc4ccccc4)c(=O)c32)cc2c1OCO2 (stereo not given)
  >25.6, ·
COC(=O)[C@@H]1C[C@H]1[C@@H](NC(=O)c1cnccn1)c1ccccc1
  ·, i
CCOC(=O)CCNc1n[nH]c(=O)[nH]c1=O
  >25.6, ·
Cc1cc(C)nc(/N=c2/ssnc2Cl)c1
  ·, i
CCS(=O)(=O)C(=C(Nc1ccc(OC)cc1)Nc1ccc(OC)cc1)S(=O)(=O)CC
  ·, i

Two records picked at random from the list so far:
Values run as follows: Bst PK mod, TsaE inh
Cc1ccccc1CN(c1ccc(C(=O)N2CCCC2)cc1)S(C)(=O)=O
  >57, i
COc1ccc(OC)c(NC(=O)CC(Cc2ccccc2OC)C(=O)O)c1 (stereo not given)
  >57, i

Compound activity (PubChem)
